VDR inhibitor = blocks the human vitamin D receptor; P11473; VDR-SRC2-3 peptide fluorescence polarization, 2 h; Potency, µM, inactives show max response, negative = inhibition, actives largely listed as inhibitors; 400,000 compounds, 0.93% hits; AID 504847; active = well fitted inhibition curve with a large enough effect; inconclusive = small, poorly fitted or top-dose-only effect, or another doubt; inactive = no such curve, though single readings can be large or run the other way; also: series mostly up to about 120 µM
Target sequence (P11473 whole entry, looked up): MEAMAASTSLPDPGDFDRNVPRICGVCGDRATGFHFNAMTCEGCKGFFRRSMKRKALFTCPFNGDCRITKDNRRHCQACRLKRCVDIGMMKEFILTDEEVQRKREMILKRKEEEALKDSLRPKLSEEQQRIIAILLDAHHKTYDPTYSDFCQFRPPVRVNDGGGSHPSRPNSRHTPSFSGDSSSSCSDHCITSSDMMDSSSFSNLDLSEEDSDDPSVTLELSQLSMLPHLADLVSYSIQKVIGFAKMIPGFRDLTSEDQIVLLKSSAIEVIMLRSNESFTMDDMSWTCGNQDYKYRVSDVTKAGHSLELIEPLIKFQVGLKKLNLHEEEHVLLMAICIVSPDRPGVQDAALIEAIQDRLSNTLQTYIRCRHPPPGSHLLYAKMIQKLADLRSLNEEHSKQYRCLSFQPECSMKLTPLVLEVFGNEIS
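Two reagent solutions held at 4 deg C in the dark were dispensed, compounds pinned at 23 nl, and the mixture incubated 2 h at room temperature. Read-out: fluorescence polarization of VDR–SRC2-3 peptide binding.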
Numbers without * were called inactive; ? = inconclusive; & = joins results of further samples. % is scaled to controls: 0 for no effect and ±100 for the full control effect; potency is read from the fitted curve at half-maximal effect. This is a subset, so the mix of outcomes need not match the whole.

SMILES | VDR inhibitor
O=C(c1cc(Cl)cc(Cl)c1)N1CCN(c2cc(C(F)(F)F)nc3ccccc23)CC1 | -11%
COCCNC(=O)c1ccc(S(=O)(=O)N2CCCc3ccccc32)cc1 | -6%
Cc1c(NC(=O)c2nn(CC(C)C)c(=O)c3ccccc23)c(=O)n(-c2ccccc2)n1C | -21%
O=C(c1ccc2c(c1)N(Cc1ccccc1)C(=O)c1ccccc1S2(=O)=O)N1CCCC1 | -12%
O=C(Cc1ccc(Cl)cc1)NC1CC1 | 0%
C/C(NCc1ccccc1)=C(\C#N)C(=O)NCc1ccccc1 | 7%
N#CCCN(C(=O)COC(=O)c1ccc(CNS(=O)(=O)c2ccc(F)c(Cl)c2)cc1)c1ccc(F)cc1 | -8%
O=C(N/N=C/c1c(Cl)nc2ccccn2c1=O)c1cccnc1 | -1%
Cc1cccc(-n2nc3c(c2NC(=O)c2ccco2)CS(=O)C3)c1C (centres undefined) | -13%
COc1ccc(-n2c(=O)cnc3cnc(OC)nc32)cc1 | 3%
Nc1nc(=S)ss1 | ?
COc1ccc(C)cc1NC(=S)NN1CCN(C)CC1 | 3%
Cc1ccc(NC(=S)NC2CC3CCC(C2)N3Cc2ccco2)c(C)c1 (centres undefined) | 3%
Cc1cccc(C(=O)NCC(=O)OCc2cc(=O)n3ccsc3n2)c1 | -7%
CN(C)c1ccc(/C=N/NC(=O)C2COc3ccccc3O2)o1 (centres undefined) | -18%
COc1ccc2ccc(OCC(=O)Nc3cc(C)on3)cc2c1 | 24%
Cc1n[nH]c(C)c1S(=O)(=O)N1CCOCC1 | 7%
COc1ccc(NC(=O)Cn2cc(S(=O)(=O)c3ccccc3)c(=O)c3cc4c(cc32)OCO4)cc1 | -27%
CC[C@]12c3[nH]c4cc(CCC(=O)N(C)C)ccc4c3CCN1C(=O)[C@@H](CC(=O)NCCN1CCOCC1)C[C@@H]2C(=O)N1CCN(C(=O)c2ccco2)CC1 | -24%
O=C(NCC(c1ccco1)N1CCCC1)c1cc(=O)[nH]c2ccccc12 (centres undefined) | -10%

Four entries from above, field by field:
> O=C(Cc1ccc(Cl)cc1)NC1CC1
  VDR inhibitor: 0%
> C/C(NCc1ccccc1)=C(\C#N)C(=O)NCc1ccccc1
  VDR inhibitor: 7%
> N#CCCN(C(=O)COC(=O)c1ccc(CNS(=O)(=O)c2ccc(F)c(Cl)c2)cc1)c1ccc(F)cc1
  VDR inhibitor: -8%
> O=C(N/N=C/c1c(Cl)nc2ccccn2c1=O)c1cccnc1
  VDR inhibitor: -1%

4 compounds drawn at random from those above, as already listed:
SMILES | VDR inhibitor
COc1ccc2ccc(OCC(=O)Nc3cc(C)on3)cc2c1 | 24%
COc1ccc(C)cc1NC(=S)NN1CCN(C)CC1 | 3%
O=C(Cc1ccc(Cl)cc1)NC1CC1 | 0%
COCCNC(=O)c1ccc(S(=O)(=O)N2CCCc3ccccc32)cc1 | -6%

Next section
SMILES | VDR inhibitor
Cc1ccc(CCC(=O)Nc2ccccc2C(=O)O)o1 | -9%
CCCCC(NC(=O)c1ccccc1)C(=O)OCC(=O)N1c2ccccc2Sc2ccccc21 (centres undefined) | -17%
COc1ccccc1C(c1nnnn1C(C)(C)C)N1CCCc2ccccc21 (centres undefined) | 4%
CCN(CCCNC(=O)c1nn(-c2ccc(OC)c(Cl)c2)c(=O)c2c1c1ccccc1n2C)c1cccc(C)c1 | -10%
S=c1[nH]nc([C@@H]2C[C@H]2c2ccccc2)n1-c1ccccc1Cl | -9%
COc1ccc2nc(SCC(=O)Nc3ccc(S(=O)(=O)Nc4onc(C)c4C)cc3)[nH]c2c1 | -4%
CCOC(=O)N1CCC(NC(=O)c2cnn(-c3ccc(OC)cc3)c2C2CCN(C(=O)OC(C)(C)C)CC2)CC1 | 14%
Cc1ccccc1N1CC(C(=O)Nc2nnc(SCC(=O)Nc3nccs3)s2)CC1=O (centres undefined) | -21%
O=C(NCc1cccc(Br)c1)C1CC(c2ccccc2C(F)(F)F)=NO1 (centres undefined) | 1%
O=S(=O)(NCc1ccccn1)c1ccccn1 | 20%
CC(C)C1N(S(=O)(=O)c2ccccc2)CCN1S(=O)(=O)c1ccccc1 | 8%
COc1ccc(-n2cc(C(=O)Nc3cc([N+](=O)[O-])ccc3OC)c3ccccc3c2=O)cc1 | -5%
Nc1cc(-c2ccc(Br)cc2)nn1Cc1ccccc1 | -2%
Cc1ccc(Nc2nc(N)nc(CN3CCN(Cc4ccc5c(c4)OCO5)CC3)n2)cc1 | -3%
NC1=NC(c2ccc(Cl)cc2)C(C(=O)c2ccccc2)N1 (centres undefined) | 1%
O=C1CCC(=O)N1c1ccccc1-c1ccccc1 | 16%
O=C(CN(Cc1ccccc1)C(=O)CNS(=O)(=O)c1ccc(F)cc1)NCc1ccco1 | -29%
Nc1ccccc1-c1nnc(SCc2ccccc2F)[nH]c1=O | 9%
CC(C)c1ccc(Nc2ncccc2C(=O)O)cc1 | -10%
CCCn1c(=O)c(C(=O)N/N=C/c2ccc(F)cc2)c(O)c2ccccc21 | -12%
CC(C)[C@@H](CO)NC(=O)c1ccc2c3n(nc2c1)-c1ccc(Cl)cc1CO3 | -12%
COc1cccc(Nc2nc(C)cc(C)c2C(N)=O)c1 | -5%
CC(C)(C)C1CCC(C(=O)NCCc2ccc(S(N)(=O)=O)cc2)CC1 (centres undefined) | -13%
CCOC(=O)c1c(NC(=O)C(C)Sc2cn(CCNC(=O)c3ccccc3OC)c3ccccc23)sc2c1CCC2 (centres undefined) | 3%
CCNc1ncc2nc(C)c(=O)n(Cc3ccc(F)cc3)c2n1 | -17%
O=C(NCc1n[nH]c(=S)n1Cc1ccccc1)c1ccccc1 | 10%
CC1CCN(CCCn2c(SCC(=O)NC3CCCC3)nc3ccccc3c2=O)CC1 | -7%
CN(CC(=O)Nc1cccc(F)c1)C(=O)c1cccc(-n2cccc2)c1 | -2%
CCOC(=O)c1nn(-c2ccc(Cl)cc2)c2nc(CC)c(C#N)c(=O)n12 | -15%
CCCOc1ccc(C(=O)CCC(=O)OCC(=O)Nc2cccc(S(N)(=O)=O)c2)cc1 | 12%
CCCc1[nH]nc2c1C(c1ccccc1OCC)C(C#N)=C(N)O2 (centres undefined) | -19%
CN(C)C(=O)c1ccc(-c2ccc3ncnc(N(C)C)c3c2)cc1 | 4%
O=C(NCCc1ccccc1)c1c(O)c2ccccc2[nH]c1=O | 8%
Cc1ccccc1NC(=S)NCC(c1cccnc1)N(C)C (centres undefined) | -22%
CCc1nc(SCC(=O)Nc2ccnc3ccccc23)n[nH]1 | -8%
CCCCOC(=O)C1=C(C)NC(=O)NC1c1ccc2c(c1)OCO2 (centres undefined) | 12%
CC(C)(C)c1nc(C(C)(C)C)c(Br)c(=O)[nH]1 | -2%
CC(C)c1cnc2c(c1SCC(=O)c1ccccc1)c(=O)n(C)c(=O)n2C | 5%
Cc1cc(C)c(C#N)c(SCS(=O)Cc2ccc(Cl)cc2)n1 (centres undefined) | -4%
O=C(OCC(=O)N1CCCC1)c1cncc(Br)c1 | 16%
CCOc1ccc(/C=C2\SC(=S)N(NC(=O)c3ccncc3)C2=O)cc1OC | -13%
O=C(CSc1nnc(-c2ccccc2)o1)N1CCCC1 | 13%
CC(C)(Oc1ccc(Cl)cc1)C(=O)Nc1c2c(nn1C(C)(C)C)CS(=O)(=O)C2 | 3%
COc1ccc(C(=O)Nc2ccc3oc(-c4cccnc4)nc3c2)cc1OC | 4%&3%
O=C(CN1CCN(S(=O)(=O)c2cc(Br)ccc2Br)CC1)NCc1ccccc1Cl | 8%
O=S(=O)(CCOc1ccccc1)N1CCOCC1 | 2%
Cc1ccccc1N1CCN(C(=O)c2ccccc2NC(=O)c2ccccc2C(=O)O)CC1 | -22%
Cn1nnnc1SCCCNCc1cc(Cl)ccc1OCc1ccc(F)cc1 | 0%
CCC(C(=O)NCC1CCCO1)N(Cc1ccc(F)cc1)C(=O)CNS(=O)(=O)c1ccccc1 (centres undefined) | -16%
COc1ccccc1CNC(=O)COC(=O)c1nccnc1N | 25%
S=c1[nH]nc(COc2ccccc2)n1/N=C/c1cccc(Br)c1 | -11%
COc1cccc(OC)c1C(=O)Nc1cccc(C(=O)Nc2cccc(C(=O)O)c2)c1 | -2%
CCOc1ccc(CCNC(=O)c2ccc(Cl)c(S(=O)(=O)N3CCOCC3)c2)cc1OCC | 5%
COc1ccc(S(=O)(=O)N2CCN(c3ccc4nnc(-c5ccccc5)n4n3)CC2)cc1 | -18%
CC(NC(=O)c1ccco1)C(=O)N1CCc2ccccc2C1 (centres undefined) | 11%
CN(c1ccc(C(=O)Nc2ccc(Cl)cn2)cc1)S(=O)(=O)c1ccccc1 | 7%
CC(NC(=S)Nc1cccc(C(F)(F)F)c1)C(C)(C)C (centres undefined) | -4%
COC(=O)[C@H]1C2CC3c4[nH]c5ccccc5c4CCN3CC2CC[C@@H]1O (some centres undefined) | 15%
O=C(NC(=S)Nc1ccc(NC(=O)c2cccs2)cc1)c1cc2ccccc2o1 | -6%
O=C(NC1CCCCC1)C(c1ccco1)N(C(=O)c1csnn1)c1ccc(Cl)cc1 (centres undefined) | 11%
(more compounds)
SMILES | VDR inhibitor
Cc1cc(C)n2nc(SCC(=O)N(C(C)C)C(C)C)nc2n1 | 2%
CCOc1ccc(-n2c(-c3ccccc3)c[n+]3c2CCCCC3)cc1 | 4%
COC(=O)C1=C(C(=O)OC)[C@@H]2N(C)c3ccc(OC)cc3[C@@]23C[C@@H](C(=O)OC)N(C(=O)NCCBr)C3=N1 | 0%
COc1ccc(S(N)(=O)=O)cc1C(=O)OCCCC(=O)c1ccccc1 | 21%
O=C(CSc1ccc2c(c1)OCCO2)NC(=O)NC1CCCC1 | -18%
Cc1cccn2c(=O)c3cc(C(=O)NC(C)c4ccccc4)c(=N)n(CCCO)c3nc12 (centres undefined) | -9%
O=C(/C=C/c1cccc([N+](=O)[O-])c1)NCc1ccc2c(c1)OCO2 | 1%
NC(=S)Nc1cc(Cl)ccc1Cl | -26%
COc1ccc(S(=O)(=O)N2CCCCCC2)cc1C(=O)N(C)Cc1ccc(F)cc1 | 0%
O=C(C1CC1)N1N=C(c2cccc(Br)c2)CC1(O)C(F)(F)F (centres undefined) | -24%
CC(C)Cn1c(O)c2ccc(C(=O)N=NC(=O)c3cccnc3)cc2c1O | -8%
CC1CN(C2CCCCC2)C(=S)N(c2ccccc2)C1=O (centres undefined) | 4%
CC1CCN(c2nnc(-c3ccccc3)c3ccccc23)CC1 | -27%
FC(F)(Cl)c1nnc2ccc(Sc3ccccn3)nn12 | -10%
CC(C)c1ccc(/C=N/NC(=O)c2nnn(-c3nonc3N)c2CN2CCOCC2)cc1 | -23%
O=C(CN1CCN(S(=O)(=O)c2ccc(F)cc2)CC1)Nc1cc(C(F)(F)F)ccc1Cl | 0%
Cc1ccc(OCc2nnc(SC(C)C(=O)O)n2-c2ccccc2)cc1 (centres undefined) | -15%
COc1ccccc1N1CCN(CC(=O)Nc2ccc(CN3CCCCC3)cc2)CC1 | 12%
Cc1ccc(Cl)cc1NC(=O)c1ccccc1OCC(=O)N1CCOCC1 | -13%
COCCNC(=O)c1c(NC(=O)c2nc(SC)ncc2Cl)sc2c1CCCC2 | 30%
CCCc1nc(SCc2ccccc2Cl)n[nH]1 | -13%
Cc1ccc(NC(=O)C(C)OC(=O)c2ccc(NS(=O)(=O)c3ccc(F)c(F)c3)cc2)cc1 (centres undefined) | -7%
Cc1cc(=O)n2c3ccccc3n(CC(O)CN3CCN(CCO)CC3)c2c1C#N (centres undefined) | 6%
CC1(c2cccc(Br)c2)NC(=O)N(CC(=O)Nc2ccc(S(N)(=O)=O)cc2)C1=O (centres undefined) | -3%
CC(=O)NC(=S)Nc1ccccc1C(=O)Nc1ccccc1 | -16%
Cn1c(=O)[nH]c(=O)c2[nH]c(CN3CCN(Cc4ccccc4)CC3)nc21 | -1%
Cc1oc2ncnc(N3CCOCC3)c2c1C(=O)N1CCN(c2cccc(C(F)(F)F)c2)CC1 | -9%
Cc1occc1-c1nnc(SCC(=O)N2CCOCC2)n1CC(C)C | -9%
O=C(COc1ccccc1Cl)N1CCN(c2ccc(F)cc2)CC1 | -4%
CC(=O)COC(=O)C1CC(=O)N(c2ccc(C)c(C)c2)C1 (centres undefined) | -12%
CCC(C)NC(=O)c1ccccc1NC(=O)CN1C(=O)c2ccccc2S1(=O)=O (centres undefined) | -11%
CCOc1ccccc1NC(=O)c1nnn(CC(=O)Nc2ccc3c(c2)OCO3)c1N | -23%
Cn1c(SCc2ccc(F)cc2)nc2ccc(C(=O)NCc3cccc(Cl)c3)cc21 | 0%
CCOc1cccc(OCCOCCn2cnc3ccccc3c2=O)c1 | -4%
O=C(Cc1ccc(Cl)cc1)c1ccccc1 | 3%
COc1ccc(-c2nnc(NC(=O)c3ccc4c(c3)OCCO4)o2)cc1 | -5%

Taken from the results shown, 6 compounds:
SMILES | VDR inhibitor
CCC(C)NC(=O)c1ccccc1NC(=O)CN1C(=O)c2ccccc2S1(=O)=O (centres undefined) | -11%
CCOc1ccccc1NC(=O)c1nnn(CC(=O)Nc2ccc3c(c2)OCO3)c1N | -23%
Cn1c(SCc2ccc(F)cc2)nc2ccc(C(=O)NCc3cccc(Cl)c3)cc21 | 0%
CCOc1cccc(OCCOCCn2cnc3ccccc3c2=O)c1 | -4%
O=C(Cc1ccc(Cl)cc1)c1ccccc1 | 3%
COc1ccc(-c2nnc(NC(=O)c3ccc4c(c3)OCCO4)o2)cc1 | -5%
